MT1-MMP promoter: inhibitors of MT1-MMP promoter transcription, cell-based, luciferase reporter, luminescence (AID 618); MT1-MMP promoter luciferase reporter cells, luminescence; calls from a first round at 10 µM; hits with a dose series show EC50 in µM; hit rate 0.62% among 87,000;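 active = over half of the reporter light lost at 10 µM or EC50 under 50 µM; inactive = the rest and hits that failed the dose series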;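 note: actives suppress MT1-MMP promoter-driven transcription so potencies describe inhibitors; HT1080 fibrosarcoma cells; overnight exposure; toxic or luciferase-blocking compounds were not removed from the actives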
Hsc70 ATP site: Hsc70 inhibitors, probe displacement, primary screen, biochemical, fluorescence polarization (AID 568) | displacement, % at 20 µM; hits with a dose series show IC50 in µM | 83,000 tested, under 10 active | Hsc70 fluorescence polarization, probe displacement; higher % means a stronger effect; strong numbers were not always called active;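 active = displacement above 50% without optical interference and an IC50 on retest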;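 note: ATPase domain with a fluorescein-tagged ATP probe; 0% = vehicle and 100% = excess ADP; read after one hour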
WNV protease inh: WNV NS2B-NS3 proteinase inhibition; hit rate 0.18% among 65,000; WNV NS2B-NS3 protease, fluorogenic substrate Ex360/Em465; stronger effect = lower value; P06935; z-score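 (tested at a level between 10 and 100 µM)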; AID 577;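 active = z-score at -3 or under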;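 note: score is relative to mean and spread of the compound wells of a plate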
Target sequence (P06935 1371-1501 limits assumed): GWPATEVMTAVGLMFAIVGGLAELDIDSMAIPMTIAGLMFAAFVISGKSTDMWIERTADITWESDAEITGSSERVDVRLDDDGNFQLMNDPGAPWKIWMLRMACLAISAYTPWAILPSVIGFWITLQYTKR
Target sequence (P06935 1502-1679 limits assumed): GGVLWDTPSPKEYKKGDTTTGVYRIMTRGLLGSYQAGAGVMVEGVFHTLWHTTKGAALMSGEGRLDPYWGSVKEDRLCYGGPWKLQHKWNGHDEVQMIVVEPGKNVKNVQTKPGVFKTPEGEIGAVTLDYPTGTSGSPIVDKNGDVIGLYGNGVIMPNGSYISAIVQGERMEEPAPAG
Active calls of the source: *; i = inactive; · = not tested or not shown.

Fields: MT1-MMP promoter	WNV protease inh	Hsc70 ATP site
Cn1c(=O)c2c(ncn2CCN(CCO)Cc2ccccc2)n(C)c1=O
→ i	-0.23	0.8%
O=S1(=O)CC(NCc2ccccc2)C(Nc2ccc(Cl)cc2)C1 (stereo not given)
→ i	1.8	-0.4%
COC(=O)c1[nH]c2ccccc2c1NC(=O)CN1CCN(c2cccc(Cl)c2)CC1
→ i	0.81	0.8%
O=C1c2ccccc2C(=O)N1CCCCSc1nnnn1-c1ccccc1
→ i	-2.2	7.5%
Cc1ccccc1OCC(=O)N(Cc1ccc(N(C)C)cc1)C1CCS(=O)(=O)C1 (stereo not given)
→ i	1.2	-4.0%
CCCCC(CC)CNC(=O)C1C2C=CC(C2)C1C(=O)O (stereo not given)
→ i	·	-5.1%
O=C(c1ccc2c(c1)OCO2)N(c1ccc(F)cc1)C1C=CS(=O)(=O)C1 (stereo not given)
→ i	1.1	-6.2%
CCOc1ccc(-n2c(SCC(N)=O)nc3c(c2=O)SCC3)cc1
→ i	0.16	8.2%
CCCCS(=O)(=O)C(=C1Nc2ccccc2N1)S(=O)(=O)CCCC
→ i	0.49	-0.2%
O=C(Nc1nnc(-c2ccccc2)s1)c1ccc(Cl)c(S(=O)(=O)N2CCOCC2)c1
→ i	-0.62	3.0%
c1ccc2c(CSCCc3ccncc3)cccc2c1
→ i	·	-0.3%
CC1=Nn2c(nnc2C2CCCCC2)SC1
→ i	-0.48	-2.7%
O=C(CN(c1ccc(F)cc1)S(=O)(=O)c1ccccc1)NCc1ccco1
→ i	-0.45	1.2%
COc1ccc(-c2nnc(-c3cc4c(ccc5ccccc54)oc3=O)o2)cc1
→ i	·	9.9%
COc1ccccc1N1CCN(C(=O)CN(Cc2ccccc2)S(C)(=O)=O)CC1
→ i	-0.27	-1.8%
COCCN(C(=O)CNC(=O)c1ccco1)C(C(=O)NC1CCCC1)c1cccs1 (stereo not given)
→ i	·	-0.2%
CCOC(=O)N1CCN(c2c(-c3ccc(C)cc3)c(=O)c2=O)CC1
→ i	1.4	3.8%
CC(=O)NC(C(=O)NCC(N)=O)C(C)C (stereo not given)
→ i	0.14	0.2%
Cn1c(=O)c2c(nc(OCc3ccccc3)n2C)n(C)c1=O
→ i	-1.2	-3.3%
CCOc1ccc(CCNC(=O)C2CCCN(C(=O)N(C)C)C2)cc1OCC (stereo not given)
→ i	-0.38	-6.4%
COc1ccc(S(=O)(=O)N2CN(Cc3ccco3)c3nc4ccccc4nc32)cc1
→ i	-0.92	0.9%
Cc1ccnc(NC(=O)c2ccc(NC(=O)c3ccco3)cc2)c1
→ i	-0.29	2.2%
CC(C)(C)C(=O)Nc1nnc(SCC(=O)NCc2cccs2)s1
→ i	·	-3.2%
CC(Oc1ccccc1)C(=O)Nc1ccccc1F (stereo not given)
→ i	·	2.3%
C/C(=N\NC(=O)Cc1cccn1C)c1cccc2ccccc12
→ i	·	-7.0%
COCc1[nH]nc2c1C(c1ccc(OC)c(OC)c1)C(C#N)=C(N)O2 (stereo not given)
→ i	-0.79	0.9%
Cn1c(=O)c2c(nc(Br)n2CCSc2nnnn2-c2ccccc2)n(C)c1=O
→ i	0.93	2.0%
CC(C)(C)n1nnnc1CN(Cc1ccco1)Cc1cc2cc3c(cc2[nH]c1=O)OCO3
→ i	0.05	-4.7%
CCOC(=O)c1ccc(NC(=O)c2c(O)c3ccccc3n(C)c2=O)cc1
→ i	-0.23	6.0%
O=C(CN1C(=O)c2ccccc2C1=O)NCc1ccncc1
→ i	0.0078	3.7%
CCCCn1c(CNC(=O)C(C)(C)C)nc2ccccc21
→ i	1.4	-0.5%
COc1ccc(N2CCN(C(=O)C34CCC(C)(C(=O)C3)C4(C)C)CC2)cc1 (stereo not given)
→ i	1.3	2.4%
CN1CCN(C(=O)c2cc(Cl)ccc2Cl)CC1
→ i	1.8	5.5%
Cc1ccc(C)c2c1sc(=NC(=O)CN1C(=O)CCC1=O)n2C
→ i	-0.4	-2.7%
CCCC(=O)N1CCN(c2nc(CC(C)C)c3c(c2C#N)CCC3)CC1
→ i	-0.4	-6.0%
Cc1cccc(CSc2nc(N)c(C#N)c(-c3cccs3)c2C#N)c1
→ i	·	-1.2%
Cc1n[nH]c(C)c1S(=O)(=O)N1CCCC(C(=O)N2CCc3ccccc32)C1 (stereo not given)
→ i	1	0.3%
O=C(Nc1ncccc1Cl)C1COc2ccccc2O1 (stereo not given)
→ i	·	6.1%
COC(=O)c1ccccc1NC(=O)C1CCCN(c2nnc(-n3cccc3)s2)C1 (stereo not given)
→ i	1.2	4.8%
Cc1ccc(NC(=O)c2cnn(-c3ccccc3)c2NC(=O)c2ccco2)cc1
→ i	-1.6	0.0%
CCOc1ccc(N2CC(C(=O)Oc3ccccc3)CC2=O)cc1 (stereo not given)
→ i	-0.77	-1.6%
CCOC(=O)c1c(N)sc(C(=O)N(C)C)c1C
→ i	1.6	2.7%
O=C(CSc1nnc(CNc2ccc(F)cc2)n1-c1ccccc1)N1CCOCC1
→ i	·	1.3%
O=C(Nc1nc2ccc(S(=O)(=O)N3CCCCC3)cc2s1)c1cccnc1
→ i	·	3.4%
O=C(C1CCCN1S(=O)(=O)c1ccc(Cl)cc1)N1CCOCC1 (stereo not given)
→ i	-1.9	-8.4%
Cc1nn(-c2ccccc2)c2nc(=O)n(-c3ccccc3)cc12
→ i	-0.97	-4.2%
Cc1cccc(NC(=O)Cc2cccs2)n1
→ i	·	0.5%
CC(C)CCn1c(N2CCN(c3cccc(Cl)c3)CC2)nc2c1c(=O)[nH]c(=O)n2C
→ i	-1.2	6.4%
Cc1nnc(N2C(=O)C(O)=C(C(=O)c3ccco3)C2c2ccc(C(C)(C)C)cc2)s1 (stereo not given)
→ i	·	35%
O=C(COC(=O)c1ccc(Cl)c(S(=O)(=O)N2CCCC2)c1)NC1CCCC1
→ i	0.52	11%

Next structures follow.
Fields: MT1-MMP promoter	WNV protease inh	Hsc70 ATP site
Cc1sc2nc(SCC(=O)NCc3cccs3)[nH]c(=O)c2c1C
→ i	-0.9	2.4%
CNC(=O)OCc1cccc(COC(=O)NC)n1
→ i	0.38	0.2%
CCOC(=O)Nc1ccc(S(=O)(=O)Nc2cc(C)on2)cc1
→ i	-0.9	2.1%
COc1ccccc1NC(=O)C1C2C=CC(O2)C1C(=O)O (stereo not given)
→ i	1.9	-6.8%
Cc1cccc(/N=C/c2c(O)[nH]c3ccccc23)n1
→ i	-1.2	-3.1%
CCOc1ccccc1NC(=O)Nc1cc(OC)ccc1OC
→ i	-1.8	5.8%
COC(=O)CSc1nnc(-c2ccc(S(=O)(=O)N3CCCCC3)cc2)o1
→ i	-0.61	-3.2%
c1ccc(CSc2nnnn2-c2ccccc2)cc1
→ i	·	0.7%
COc1ccc(N2C(=O)CC(NC3CC3)C2=O)cc1 (stereo not given)
→ i	0.46	0.1%
CCc1ccc2c(CN(CC)Cc3nc4ccccc4c(=O)[nH]3)cc(=O)oc2c1
→ i	-0.02	-0.6%

Sorted by count of non-hydrogen atoms (low to high): three of the compounds above
Fields: MT1-MMP promoter	WNV protease inh	Hsc70 ATP site
c1ccc(CSc2nnnn2-c2ccccc2)cc1
→ i	·	0.7%
CCOc1ccccc1NC(=O)Nc1cc(OC)ccc1OC
→ i	-1.8	5.8%
COC(=O)CSc1nnc(-c2ccc(S(=O)(=O)N3CCCCC3)cc2)o1
→ i	-0.61	-3.2%

Additional results:
Fields: MT1-MMP promoter	WNV protease inh	Hsc70 ATP site
O=C(Nc1ccccc1N1CCCCC1)c1ccc2nccnc2c1
→ i	-0.92	-2.6%
CCC(C)[C@H](NC(=O)OC(C)(C)C)C(=O)N/N=C/c1cccc2nccnc12 (stereo not given in full)
→ i	·	-3.6%
CC1(C)Cc2c(c(N3CCOCC3)nc3sc(-c4ccc(C(=O)O)o4)c(N)c23)CO1
→ i	-1.1	-140%
Cc1cc(NCCCN(C)C)n2nc(-c3cccs3)cc2n1
→ i	·	-10%
CCc1nnc(NC(=O)CCN2C(=O)c3ccccc3C2=O)s1
→ i	-0.49	-1.2%
CCOC(=O)N1CCN(C(=O)c2ccc(C)c(S(=O)(=O)Nc3ccccc3)c2)CC1
→ i	-0.46	3.4%
CC(C)n1c(=N)c(C(=O)NCCc2ccccc2)cc2c(=O)n3ccccc3nc21
→ i	2.5	4.4%
Cc1ccc(NS(=O)(=O)c2ccc(CCC(=O)O)cc2)cc1
→ i	-0.29	-5.1%
CCC(C)N1CC23C=CC(O2)C(C(=O)OCc2ccccc2)C3C1=O (stereo not given)
→ i	0.67	3.0%
O=C(NCc1ccncc1)/C(=N/O)c1ccccc1
→ i	-0.76	-2.3%
C=CCN=C1SC(C)C(=O)N1S(=O)(=O)c1ccccc1 (stereo not given)
→ i	0.87	1.6%
C=CCC1c2cccc(C(=O)OC)c2C(=O)N1c1ccccc1 (stereo not given)
→ i	·	-1.6%
Cc1cc(C(=O)Nc2nc3c(s2)CCCC3)no1
→ i	0.88	0.8%
CC(C)OC(=O)N(C)c1ccc(C(O)(C(F)(F)F)C(F)(F)F)cc1
→ i	·	-2.4%
Cc1ccc(C(C)C)c(OCCNS(C)(=O)=O)c1
→ i	-0.5	-3.2%
CCOC(=O)NCc1ccc(Cl)c(Cl)c1
→ i	-1.9	0.8%
Cn1cnnc1SCc1ccc(C#N)cc1
→ i	0.77	2.7%
Cn1c(=O)c2c(nc(Br)n2C)n(C)c1=O
→ i	-0.37	3.9%
CCn1c(SCC(=O)NCCOC)nc2sc3c(c2c1=O)CCCC3
→ i	1.4	0.9%
Cn1nc(-c2ccc(C(=O)Nc3cccnc3)cc2)c2ccccc2c1=O
→ i	-0.74	7.3%
Cc1nc(N)c(C#N)c(-c2cccnc2)c1C
→ i	-0.38	2.1%
COc1ccc(N2CCN(CCCNC(=O)c3cc4sccc4n3C)CC2)cc1
→ i	0.56	2.1%
O=C(Nc1cccc2c1CCCC2)C1CCN(C(=O)NC2CCCCC2)CC1
→ i	-1	5.7%
CCOC(=O)c1c(C)c(C(=O)NCC2CCCO2)c(C)n1CC (stereo not given)
→ i	-1.9	-2.8%
O=C1CC(c2ccco2)CC(O)=C1C=NCCN1CCN(C2CC(=O)N(c3ccccc3)C2=O)CC1 (stereo not given)
→ i	0.45	-5.2%
CN1CCN(S(=O)(=O)c2ccc(Br)s2)CC1
→ i	0.15	-1.5%
N#C/C(=N\Nc1ccc(F)cc1)C(=N)N1CCCCC1
→ i	·	-1.2%
Cc1cc(NC(=O)CSc2nc3c(c(=O)n2CCc2ccccc2)SC(C)C3)no1 (stereo not given)
→ i	-1.2	2.4%
COc1ccc(C(c2nnnn2C2CCCCC2)N2CCN(c3ccccc3)CC2)cc1 (stereo not given)
→ i	-0.11	-4.2%
Cn1c(=O)c2c(nc(SCC(=O)O)n2Cc2cc3c(cc2Cl)OCO3)n(C)c1=O
→ i	·	-3.6%

Rewritten field by field: part of the list above
> COc1ccc(N2CCN(CCCNC(=O)c3cc4sccc4n3C)CC2)cc1
  MT1-MMP promoter: i; WNV protease inh: 0.56; Hsc70 ATP site: 2.1%
> O=C(Nc1cccc2c1CCCC2)C1CCN(C(=O)NC2CCCCC2)CC1
  MT1-MMP promoter: i; WNV protease inh: -1; Hsc70 ATP site: 5.7%
> CCOC(=O)c1c(C)c(C(=O)NCC2CCCO2)c(C)n1CC (stereo not given)
  MT1-MMP promoter: i; WNV protease inh: -1.9; Hsc70 ATP site: -2.8%
> Cc1nc(N)c(C#N)c(-c2cccnc2)c1C
  MT1-MMP promoter: i; WNV protease inh: -0.38; Hsc70 ATP site: 2.1%

(more compounds)
Fields: MT1-MMP promoter	WNV protease inh	Hsc70 ATP site
Cc1cccc(C(=O)N2CCN(c3ncnc4c3cnn4-c3ccccc3)CC2)c1
→ i	·	0.4%
CCC(Oc1ccccc1)C(=O)Nc1nc2ccccc2[nH]1 (stereo not given)
→ i	0.88	2.6%
CCCCN(C(=O)NC(=O)Nc1ccccc1OCC)S(C)(=O)=O
→ i	-0.6	1.0%
Cc1ccc(NC(=O)C2CCCN2S(=O)(=O)c2ccc(F)cc2)c(C)c1 (stereo not given)
→ i	0.09	4.0%
CC(=O)c1ccc(OC(=O)c2ccc(Br)o2)cc1
→ i	-1.2	-4.9%
CCCn1c(SCCN2C(=O)c3ccccc3C2=O)n[nH]c1=O
→ i	0.07	-2.0%
CC(=O)Nc1nc2cc3c(cc2s1)OCO3
→ i	-0.55	-5.7%
O=C(c1ccco1)N1C2C=CC(C2)C1(C(F)(F)F)C(F)(F)F (stereo not given)
→ i	-0.6	-1.8%
CCN(CC)c1nc2ccccc2[nH]1
→ i	·	2.5%
CCc1ccc(NC(=O)C2CCCCC2C(=O)O)cc1 (stereo not given)
→ i	2	-2.1%
COc1ccc(S(=O)(=O)CCC(=O)N(C)c2ccc(OC)cc2OC)cc1
→ i	·	1.3%
S=C(NN=C1C2CC3CC(C2)CC1C3)Nc1ccccc1
→ i	·	-1.3%
COc1ccc(Nc2ncccc2C(=O)O)cc1
→ i	·	2.5%
CC12C(=O)N(n3cnnc3)C(=O)C1C1C=CC2C1 (stereo not given)
→ i	-2	1.1%
COCc1cc(=O)[nH]c(/N=C(\N)Nc2cccc(C)c2)n1
→ i	·	-0.4%
CCOC(=O)C1CCCN(C(=O)CCn2nc(-c3ccccc3)ccc2=O)C1 (stereo not given)
→ i	-0.46	-4.5%
CCCCNC(=O)NC1C(NC(=O)NCCCC)N(C)C(=O)N1C (stereo not given)
→ i	-0.27	-2.2%
O=C1CC(c2nc3ccccc3[nH]2)CN1c1ccccc1F (stereo not given)
→ i	-0.35	2.0%
CC1CCCC(C)N1C(=O)CSc1nnc(COc2ccccc2)n1-c1ccccc1 (stereo not given)
→ i	·	-1.5%
